YjeE inh = displaces an ADP probe from E. coli YjeE (TsaE) | P0AF67 | AID 605 | 71,000 compounds, 0.05% hits | Potency, µM | purified YjeE, fluorescence polarisation of a bound ADP probe; active = well fitted falling curve; inconclusive = weaker or top-dose-only fall, or a rising curve; inactive = flat or poorly fitted curve;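 further: top concentration of the series not given in the record; excess ADP was the control for the full effect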
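Purified YjeE (10 uM) with BODIPY Texas Red-labeled ADP probe (2 uM); compounds pin-transferred, 15 min at room temperature. Binding inhibition read as decreased fluorescence polarization; ADP titration as control.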
Bst PK mod = modulators of Bacillus stearothermophilus pyruvate kinase; 51,000 compounds, 1.2% hits; partly purified Bacillus stearothermophilus pyruvate kinase, luminescence ATP production; ribose 5-phosphate activator present at AC10; Potency, µM; in the data active means potency below about 11 µM; inconclusive means mostly about 12 µM to 25 µM; inactive means weaker than that;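 the screen sought inhibitors and activators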;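 further: potency means the concentration at half of the fitted maximal effect; scaled between full activation by ribose 5 phosphate and full inhibition by luteolin; about four in five hits inhibit and the cells do not say which; series up to 57 µM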
An asterisk follows results filed as active; i = inactive; . = no result given. Only part of the results is shown. The share of hits here may be higher or lower than overall.

YjeE inh	Bst PK mod	canonical_smiles
i	.	CCCOc1ccc(C2c3c(oc4cc(C)c(C)cc4c3=O)C(=O)N2CCCN(C)C)cc1OCC (stereo not drawn)
i	>57	COC(=O)C1CCN(C(=O)c2ccc(Cl)c(S(=O)(=O)NCc3cccnc3)c2)CC1
i	.	Cc1c(NC(=O)C2CCCN2S(=O)(=O)c2ccccc2)c(=O)n(-c2ccccc2)n1C (stereo not drawn)
i	>57	CC1CCCCN1CC(=O)Nc1sc2c(c1C#N)CCC2 (stereo not drawn)
i	>57	C/C(Cl)=C/CSc1nc2c(c(=O)[nH]c(=O)n2C)n1C(C)C
i	.	C/C(=C\COc1cc(=O)[nH]c2ccccc12)CC[C@@H](O)C(C)(C)O
i	>57	O=C(C1Cc2ccccc2CN1S(=O)(=O)c1cccs1)N1CCCCC1 (stereo not drawn)
i	>57	O=C1COc2ccc(C(=O)CSc3nnc(-c4cccs4)n3Cc3ccccc3)cc2N1
i	>57	O=C(O)C(CCCCN1C(=O)C2C3C=CC(C3)C2C1=O)N1C(=O)C2C3C=CC(C3)C2C1=O (stereo not drawn)
i	.	CCOC(=O)C1CCN(C(=O)CN(c2cccc(OC)c2)S(=O)(=O)c2ccccc2)CC1
i	>57	CCCNC(=O)c1c(N)n(-c2ccc3c(c2)OCO3)c2nc3ccccc3nc12
i	.	CCc1ccc(S(=O)(=O)NC(CC(=O)O)c2ccccc2)cc1 (stereo not drawn)
i	>57	Cc1cc2ncn(CCOc3ccccc3C#N)c2cc1C
i	.	O=C(CN1CCOc2ccccc21)NCc1ccccc1
i	>57	COc1cccc(C(=O)N(CN2CCCC2=O)c2cccc(Cl)c2)c1
i	>57	COc1ccc(-c2nnn(CCc3nn[nH]n3)n2)cc1OC
i	.	O=C1CCc2cc(S(=O)(=O)NC(Cc3ccccc3)C(=O)NC3CCCC3)ccc2N1 (stereo not drawn)
i	>57	CC(C)CC(NC(=O)C1CCC(C)CC1)C(=O)Nc1ccccn1 (stereo not drawn)
i	.	CN(C)c1ccc(CN2CCCCCC2)cc1
i	>57	Cn1c(SCCOc2cccc(Cl)c2)nnc1-c1ccncc1
i	i	COc1cc2c(C#N)c(N3CCc4ccccc4C3)nc(N)c2c(N)n1
i	.	COc1ccc(-c2nc3cnc(N(C)C)nc3n(Cc3ccc(F)cc3)c2=O)cc1
i	>57	CC1=Nn2c(nnc2-c2ccccc2Cl)SC1
i	.	C[N+]1(CCCCC[N+]2(C)CCCC2)CCCC1
i	>57	Cc1onc(-c2c(Cl)cccc2Cl)c1C(=O)Nc1c(C)n(C)n(-c2ccccc2)c1=O
i	>57	COc1ccccc1NC(=O)N(Cc1ccco1)Cc1cc2ccc(C)c(C)c2[nH]c1=O
i	>57	O=C(Oc1ccc(OC(=O)N2CCOCC2)cc1)c1ccccc1
i	>57	Cc1cc(C)nc(SCc2nnc(SCC(=O)N3CCOCC3)o2)n1
i	>57	CC1=C(C(=O)OCc2ccccc2)C(c2ccoc2)C(C#N)=C(N)O1 (stereo not drawn)
i	>57	Cc1cccnc1N(C(=O)Nc1ccccc1)C1=NCC(C)(C)S1
i	>57	COc1ccc(C(C(=O)OCCN(C)C)c2ccccc2)cc1 (stereo not drawn)
i	>57	O=c1cc(-c2ccccc2)[nH]n1-c1nc2ccccc2s1
i	>57	Cn1c(SCC(=O)Nc2ccccc2F)nnc1-c1ccc(S(=O)(=O)N2CCOCC2)cc1
i	.	O=c1c2ccccc2sc2c(CO)ccc(NCCN3CCCCC3)c12
.	>11	Cn1cc(Br)cc2nc(C(F)(F)F)nc1-2
i	.	CCOc1ccccc1N1CCN(C(=O)c2ccncc2)CC1
i	.	Cc1cnc(CNc2ncncc2-c2cccc(NS(C)(=O)=O)c2)cn1
i	>57	O=C(c1ccc(CS(=O)(=O)c2cccc(C(F)(F)F)c2)o1)N1CCN(c2ccccn2)CC1
i	.	Cn1c(=O)c2c(SCc3ccccn3)nc(C3CC3)nc2n(C)c1=O
i	>57	COc1ccccc1NC(=O)C(C)Sc1nnnn1C (stereo not drawn)
i	.	CC(C)(C)C1CCc2c(sc(NC(=O)c3cc(C4CC4)on3)c2C#N)C1 (stereo not drawn)
i	.	CN(C)c1ccc(-c2ccccc2)nn1
i	>57	Clc1ccc(-c2nn3c(Cn4cnc5ccccc54)nnc3s2)c(Cl)c1
i	>57	CCS(=O)(=O)N1CCC(C(=O)NCCCN2CCCCCC2)CC1
i	>57	CCOC(=O)C1CCCN(Cc2ccccc2OCC)C1 (stereo not drawn)
i	>57	Cn1c(CC(=O)Nc2ccccc2)nnc1SCCOc1ccccc1
i	.	CNc1nc(-c2ccccc2Cl)nc2ccccc12
i	>57	COc1cc(C#CC#CCN2CCCCC2)ccc1O
i	.	O=C(O)/C=C(/c1ccccc1)C(F)(F)F
i	.	CCCNC(=O)CC(NS(=O)(=O)c1ccc(Cl)cc1)c1ccco1 (stereo not drawn)
i	.	O=C(Nc1ccc2c(c1)OCO2)C1COc2ccccc2O1 (stereo not drawn)
i	.	Cc1noc(C)c1-c1ccc2ncnc(N(C)Cc3ccco3)c2c1
i	>57	CCCCc1ccc(S(=O)(=O)NCCc2ccncc2)cc1
i	>57	COCCn1c(NCc2ccccc2)nc2c1c(=O)[nH]c(=O)n2C
i	>57	CCOc1ccc(NC(=O)c2ccc(F)c(S(=O)(=O)N3CCN(c4ccccn4)CC3)c2)cc1
i	.	Cc1ccc(NC(=O)CC2Nc3ccccc3NC2=O)cc1Cl (stereo not drawn)

The results go on:
YjeE inh	Bst PK mod	canonical_smiles
i	>57	O=C(NCc1ccccc1)NC(=O)c1ccncc1
i	>57	CCOC(=O)c1c(NC(=O)c2ccc(-n3cnnn3)cc2)sc2c1CCCC2
i	>57	O=C(CN1C2CCC1CC(NC(=O)NC1CCCCC1)C2)NC1CC1 (stereo not drawn)
i	>57	CCCCN(CC)S(=O)(=O)N1CCC(C(=O)NCc2ccc(F)cc2)CC1
i	>57	COc1ccc(-n2cnnc2SCC(=O)c2cc(C)n(Cc3cccs3)c2C)cc1
i	>57	O=C(NCc1ccco1)c1cc(-c2ccc(Cl)cc2)on1
i	>57	CCCS(=O)(=O)N1CCC(C(=O)c2cccc(C(F)(F)F)c2)CC1
i	.	Cc1ccc(-c2csc(NC(=O)c3cccc(S(=O)(=O)N4CCN(C)CC4)c3)n2)cc1
i	>57	O=C(CSc1nc2c(c(=O)n1-c1ccc(F)cc1)SCC2)Nc1ccc2c(c1)OCO2
i	.	CCSc1nc2ccccc2n1S(=O)(=O)c1ccccc1
i	.	Cc1ccc(CNC(=O)[C@H]2C[C@@H]2[C@H](NP(=O)(c2ccccc2)c2ccccc2)c2ccccc2)o1
i	>57	Cc1ccc(CN2C(=O)CCC2C(=O)NCc2ccc(F)cc2)cc1 (stereo not drawn)
i	.	CNC(=O)NC1CCCCc2sccc21 (stereo not drawn)
i	>57	O=C(O)Cn1c(SCCOc2ccccc2)nc2ccccc21
i	.	COc1ccc(-n2c(Cc3cccn3C)nnc2SCC(=O)NCc2ccc(F)cc2)cc1
.	>26	CCSc1nc2sc3c(c2c(=O)n1C1CCCCC1)CCN(C)C3

2 records drawn at random from those above:
YjeE inh	Bst PK mod	canonical_smiles
i	>57	O=C(CSc1nc2c(c(=O)n1-c1ccc(F)cc1)SCC2)Nc1ccc2c(c1)OCO2
.	>26	CCSc1nc2sc3c(c2c(=O)n1C1CCCCC1)CCN(C)C3

The list continues.
YjeE inh	Bst PK mod	canonical_smiles
i	.	Cc1ccc2nc3c(c(N)c2c1)CCN3c1ccccc1
i	.	CCc1ccc(C2CC(=O)N3CN(c4ccccc4)CSC3=C2C#N)cc1 (stereo not drawn)
i	.	COc1ccc(Oc2ncc3nc(CCc4ccccc4)c(=O)n(C)c3n2)cc1
i	.	O=C(CSCCO)Nc1ccc(C2CCCCC2)cc1
i	>57	CC1Oc2ccccc2N(CC(=O)NCC2CCCO2)C1=O (stereo not drawn)
i	>57	O=C(OCc1nc2ccccc2s1)C1CCN(S(=O)(=O)c2cccs2)CC1
i	.	Cc1noc(C)c1C(=O)N1CCC[C@@]2(CCN(Cc3nccs3)C2)C1
i	.	Cn1c(C(=O)NC2CCCCC2)cc2c(=O)n(C)c3ccccc3c21
i	>57	CC(=O)c1cccc(NC(=O)CN2C(=O)NC3(CCCCCCC3)C2=O)c1
i	.	O=C(O)CC(C(=O)Nc1cccc(C(F)(F)F)c1)C1CCCO1 (stereo not drawn)
i	.	CN1CCN(C(=O)c2ccc(Cl)c(S(=O)(=O)N3CCCCC3)c2)CC1
i	>57	Cn1c(Cc2ccccc2)nnc1SCC(=O)Nc1ccc2c(c1)OCO2
i	.	Cc1cnc(CNc2ccnc(-c3ccccc3CN(C)C)n2)cn1
i	>57	Cn1c(SCC(=O)Nc2ccc(N3CCOCC3)c(Cl)c2)nnc1-c1ccccc1
i	.	CCCCC#Cc1ccccc1CC(=O)Nc1ccccc1
i	>57	FC(F)(F)c1nnc2ccc(NCn3nnc4ccccc43)nn12
i	.	CN(C)C(=O)c1ccc(-c2ccc3ncnc(N4CCC(C(=O)O)CC4)c3c2)cc1
i	>57	COc1ccccc1CN1C(=O)CN(C2CCCC2)C(=O)C1c1ccc(F)cc1 (stereo not drawn)
i	.	CC(=O)OC(C)(CCC(C)(OC(C)=O)C(C)=O)C(C)=O (stereo not drawn)
i	.	CN1CCC2(CC1)CCN(C(=O)c1cccc(F)c1)CC2
i	>57	CNC(=O)CN(c1cc(C)ccc1C)S(C)(=O)=O
i	>57	CCOC(=O)c1c(NC(=O)c2noc3c2CCCC3)sc(C)c1C
i	>57	CC(C)(C)NC(=O)C1CCC(C)(C(=O)O)C1(C)C (stereo not drawn)
i	.	CC1=C(C(=O)Nc2ccccc2)C(c2ccco2)C(C#N)=C(SCC(=O)OC(C)C)N1 (stereo not drawn)
i	>57	Cn1nnnc1SCC(=O)N1CCN(Cc2ccccc2)CC1
i	.	COC(=O)c1ccc(C(NC(=O)OCc2ccccc2)/C(C)=C/[C@@H](C)C(=O)NCCc2c[nH]c3ccc(OC)cc23)cc1 (stereo partly drawn)
i	>57	Cc1cc(C)c(C#N)c(SCCS(=O)(=O)Cc2ccccc2)n1
i	>57	O=C(CNC(=O)C12CC3CC(CC(C3)C1)C2)NC1=NCCS1
i	.	CCCCCCN(C(=O)CCCCCN1C(=O)NC(c2ccc(-c3ccccc3)cc2)C(C(=O)OCc2ccccc2)=C1C)C(C(=O)NCCCC)c1ccc(O)c(C(=O)OC)c1 (stereo not drawn)
i	.	C=CCNC(=O)CCNS(=O)(=O)c1ccc(Br)cc1
i	>57	CC(C)(C)c1cc(CN2CCN(CCO)CC2)cc(C(C)(C)C)c1O
i	>57	CCOC(=O)CCn1c(CC(=O)OCC)nc2ccccc21

Grouped by structure, the compounds so far containing a CF3 group.
YjeE inh	Bst PK mod	canonical_smiles
.	>11	Cn1cc(Br)cc2nc(C(F)(F)F)nc1-2
i	>57	O=C(c1ccc(CS(=O)(=O)c2cccc(C(F)(F)F)c2)o1)N1CCN(c2ccccn2)CC1
i	.	O=C(O)/C=C(/c1ccccc1)C(F)(F)F
i	>57	CCCS(=O)(=O)N1CCC(C(=O)c2cccc(C(F)(F)F)c2)CC1
i	.	O=C(O)CC(C(=O)Nc1cccc(C(F)(F)F)c1)C1CCCO1 (stereo not drawn)
i	>57	FC(F)(F)c1nnc2ccc(NCn3nnc4ccccc43)nn12

A different layout for some results above.
CCCCCCN(C(=O)CCCCCN1C(=O)NC(c2ccc(-c3ccccc3)cc2)C(C(=O)OCc2ccccc2)=C1C)C(C(=O)NCCCC)c1ccc(O)c(C(=O)OC)c1 (stereo not drawn)
  YjeE inh: i; Bst PK mod: .

C=CCNC(=O)CCNS(=O)(=O)c1ccc(Br)cc1
  YjeE inh: i; Bst PK mod: .

CC(C)(C)c1cc(CN2CCN(CCO)CC2)cc(C(C)(C)C)c1O
  YjeE inh: i; Bst PK mod: >57

CCOC(=O)CCn1c(CC(=O)OCC)nc2ccccc21
  YjeE inh: i; Bst PK mod: >57

Going on with the list.
YjeE inh	Bst PK mod	canonical_smiles
i	.	Cc1cc2ncn(CC(O)COC3CCCCC3)c2cc1C (stereo not drawn)
i	>57	O=C(NCCN1CCOCC1)c1ccc(CS(=O)(=O)Cc2ccccc2F)o1
i	.	CN1CCN(c2ccccc2NC(=O)C(Cc2ccccc2)n2cccc2)CC1 (stereo not drawn)
i	>57	O=C(OC1CCCCC1=O)c1cc(=O)c2ccccc2o1 (stereo not drawn)
i	>57	CC1(c2ccccn2)Nc2ccccc2-c2nc3ccccc3n21 (stereo not drawn)
i	.	COc1ccc(-n2c(Cc3cccn3C)nnc2SCC(=O)NCC2CCCO2)cc1 (stereo not drawn)
i	.	O=C(NO)c1ccc(C(=O)N(C2CCCCC2)C2CCCCC2)cc1
i	>57	Cc1ccc(S(=O)(=O)NCc2cn3c(C)csc3n2)cc1
i	.	COc1cccc(-c2cc(N)nn2C(=O)Nc2ccc(Cl)cc2)c1
i	.	O=C(Nc1cccs1)Nc1ccccc1Cl
i	>57	CN1CCN(C2=C(Cl)C(=O)N(Cc3ccccc3)C2=O)CC1
i	.	Cc1ccc(C)c(C(=O)COC(=O)c2ccc(Br)o2)c1
i	.	CC1CCc2nn(CC(=O)Nc3c(F)cc(F)cc3Br)cc2C1 (stereo not drawn)
i	.	Cc1noc(C)c1COC(=O)CCN1c2ccccc2Sc2ccccc21
i	.	CCOC(=O)c1ccc(NS(=O)(=O)c2c(C)n(C)c(=O)n(C)c2=O)cc1
i	.	COc1cc2c(cc1NC(=O)CC1SC(N3CCCC3)=NC1=O)oc1ccccc12 (stereo not drawn)
.	>26	Cc1ccc(N2C(=O)CC3(CC4C=CC3C4)C2=O)cc1 (stereo not drawn)
i	.	CCCCOc1ccccc1C1C(C(=O)OC)=C(C)N(C)C(C)=C1C(=O)OC

Assay outcomes deposited in PubChem BioAssay by National Center for Advancing Translational Sciences (NCATS).
